# hDAT+cocaine: human DAT dopamine uptake with cocaine, either direction; B-score at 10 µM; Q01959; LLC-PK1 hDAT cells, [14C]-dopamine uptake with cocaine IC80; actives deviate in either direction; hit rate 1.3% among 110,000;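 active = Z score or B-score, a plate-position-corrected score, falls beyond the plate's 99.7% confidence bounds, in either direction; inactive = both scores lie inside the 99.7% bounds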;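 note: scored against the spread of the other compound wells on the same plate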
# PostGolgi yeast: growth inhibition of a yeast mutant, post-Golgi transport screen; post-Golgi transport phenotypic cell assay; inhibition, % at 10 µM; hit rate 0.9% among 98,000;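 note: yeast cells grown in 1536-well plates; yeast grown about 18 h at 30C before absorbance read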
# PostGolgi ctrl: yeast control strain growth, post-Golgi counter-screen | efflux-deficient yeast background strain, growth absorbance A615, 16 h | inhibition, % at 10 µM | hit rate 5% among 98,000 | AID 738
# S1P2 blocker: antagonists of human S1P2 receptor. AID 736. hit rate 0.21% among 97,000. cell-based S1P2 antagonist assay, inhibition at 5 uM. inhibition, % at 5 µM; in the data active = inhibition above about 45%;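 note: CRE beta-lactamase reporter cells expressing human S1P2 stimulated with S1P; 0% = agonist at EC80 alone and 100% = agonist plus reference antagonist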
# Target sequence (O95136 whole entry, looked up): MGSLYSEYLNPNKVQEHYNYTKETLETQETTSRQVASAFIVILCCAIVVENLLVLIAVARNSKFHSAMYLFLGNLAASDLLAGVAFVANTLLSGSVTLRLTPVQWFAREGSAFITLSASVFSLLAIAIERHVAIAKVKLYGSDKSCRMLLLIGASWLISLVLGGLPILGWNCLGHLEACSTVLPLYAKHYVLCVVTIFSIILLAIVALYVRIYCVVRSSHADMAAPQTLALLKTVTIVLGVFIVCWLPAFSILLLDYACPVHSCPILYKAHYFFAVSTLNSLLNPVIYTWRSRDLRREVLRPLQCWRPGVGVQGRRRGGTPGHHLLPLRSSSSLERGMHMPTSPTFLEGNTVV
# CYP2C19 inh: human CYP2C19 inhibition. hit rate 21% among 96,000. inhibition, % at 5 µM. CYP2C19 Supersomes, luciferin-H EGE luminescence, 30 min;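 active = CYP2C19 inhibition above a set limit at 5 µM in the primary screen, cut at about 50% in these data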;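 note: plate controls were negative control wells for no effect and 2.5 mM tranylcypromine positive control for full effect; values of inactives mirror those of a sister screen read the other way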
# Target sequence (P33261 whole entry, looked up): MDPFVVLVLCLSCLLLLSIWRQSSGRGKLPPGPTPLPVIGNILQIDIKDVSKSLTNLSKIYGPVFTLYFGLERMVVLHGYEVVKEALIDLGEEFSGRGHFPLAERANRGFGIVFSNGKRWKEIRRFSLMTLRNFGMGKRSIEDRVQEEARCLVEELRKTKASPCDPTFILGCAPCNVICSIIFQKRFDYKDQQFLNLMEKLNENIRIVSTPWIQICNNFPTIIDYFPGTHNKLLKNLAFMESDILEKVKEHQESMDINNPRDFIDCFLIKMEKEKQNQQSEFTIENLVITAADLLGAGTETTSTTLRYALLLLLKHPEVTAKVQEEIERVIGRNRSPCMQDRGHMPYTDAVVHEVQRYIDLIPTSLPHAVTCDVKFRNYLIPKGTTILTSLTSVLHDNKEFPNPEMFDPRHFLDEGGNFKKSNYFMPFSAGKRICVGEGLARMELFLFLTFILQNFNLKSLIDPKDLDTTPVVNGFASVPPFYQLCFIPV
# S1P2 ag: S1P2 (human) receptor agonism. hit rate 0.46% among 97,000. O95136. S1P2-expressing cell line, agonist reporter read-out. activation, % at 4.5 µM; in the data active = activation above about 16%;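 note: 0% = vehicle low control and 100% = maximal reference agonist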
# CYP2C19 activ: cytochrome P450 2C19 (human) activation; 96,000 tested, under 10 active; P33261; activation factor at 5 µM; AID 1025; recombinant CYP2C19, luciferin-H EGE luminescence; active compounds read high; 0 = fully inhibited enzyme, 1 = untreated enzyme;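 active = activation factor of at least 2 at 5 µM in the primary screen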;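 note: 0 = wells with 2.5 mM tranylcypromine and 1 = vehicle-only wells; values of inactives mirror those of a sister screen read the other way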
# * marks the source's active call; other numbers are inactive results; / = not tested or not shown. Cut-off read from the data, not from the text of the source, unless noted: active = inhibition above about 30%; inactive = the rest. Only part of the results is shown. The share of hits here may be higher or lower than overall.
SMILES,hDAT+cocaine,PostGolgi yeast,PostGolgi ctrl,S1P2 blocker,CYP2C19 inh,S1P2 ag,CYP2C19 activ
COc1ccc(NC(=O)CS(=O)CC(=O)NC2CCCc3ccccc32)cc1 (centres undefined),-0.23,0,-4,-4,-2,-5,1
CC(=O)Cc1nsc(NC(=O)c2ccc(-c3ccc(Cl)cc3Cl)o2)n1,0.14,2,16,0,-14,-1,1.1
COc1ccccc1C(=O)Nc1ccc2c(c1)OCCO2,0.42,17,-3,-12,11,-6,0.9
NS(=O)(=O)c1cccnc1Nc1cccc(Cl)c1Cl,-0.45,4,23,-7,25,-3,0.7
COC(=O)c1ccc(C2NC(=S)N(c3ccccc3)C(C)=C2C(=O)Nc2ccccc2OC)cc1 (centres undefined),0.023,1,7,6,80*,-7,0.2
Cc1nc2cc(F)ccc2n1C1CCN(S(=O)(=O)c2ccccc2)CC1,0.25,6,14,9,38,-8,0.6
Clc1ccccc1-c1nc(-c2ccccc2)n[nH]1,2.7,17,-5,11,38,-3,0.6
CCC(=O)Nc1ccc(S(=O)(=O)Nc2cccc(C)c2)cc1OC,-0.88,-7,25,-9,71*,-1,0.3
Cc1ccc(C(=O)NCCSc2ccccc2)cc1S(=O)(=O)Nc1ccccc1,1.3,-9,8,-12,60*,-12,0.4
Cc1nc(N)nc(-c2ccccc2O)n1,-0.44,0,12,-10,22,-4,0.8
COc1cccc(/C(O)=C2/C(=O)C(=O)N(CCN(C)C)C2c2ccc(Br)cc2)c1 (centres undefined),-0.92,-6,4,15,-2,-8,1
CCOc1ccc(N(CC(=O)OC)S(=O)(=O)c2c(C)noc2C)cc1,-0.28,-1,-4,-1,51*,-3,0.5
CN(c1ccc(OCc2nnc(-c3ccccc3)o2)cc1)S(=O)(=O)c1ccccc1,-0.16,-1,6,11,94*,-3,0.1
Cc1cc(C(=O)NCCCn2ccnc2)cs1,-0.0046,1,6,11,88*,-1,0.1
O=S(=O)(NCC1CCCO1)c1ccc(Oc2ccccc2)cc1 (centres undefined),0.033,-2,5,1,95*,-3,0
CCOC(=O)C1=C(CSc2nc(C)cc(C)c2C#N)OC(N)=C(C#N)C1c1ccccc1 (centres undefined),0.27,-6,15,12,75*,-11,0.3
Cc1cc(C)c2nc(NC(=O)C3CCCO3)sc2c1 (centres undefined),0.11,-4,14,-36,14,0,0.9
O=C(Nc1ccc(OC(F)(F)F)cc1)C1CCCN(S(=O)(=O)c2cccnc2)C1 (centres undefined),-1.1,-4,0,12,99*,-2,0
COc1ccc(-c2cc3ccccc3oc2=O)cc1NC(=S)NC(=O)c1ccc2c(c1)OCCO2,1.3,-12,13,22,-14,-4,1.1
CC(=O)NS(=O)(=O)c1cccnc1Nc1ccc(Cl)cc1,0.078,3,-3,4,5,-2,1
CCCCn1nnnc1NCc1ccc(C)s1,-0.83,/,/,2,/,-2,/
CCOc1ccc(-c2cc(C(=O)Nc3ccc4c(c3)OCCO4)c3ccccc3n2)cc1,-0.028,-9,4,22,49,-9,0.5
COc1ccc(C(=O)NCCCN2CCOCC2)cc1OC,0.13,-1,11,-12,4,-8,1
O=C(C1CC1)N1CCC(c2nc(-c3ccc(S(=O)(=O)N4CCCC4)cc3)no2)CC1,2.2,11,3,-2,20,-4,0.8
COCCCNC(=O)c1ccc2c(=O)n(C3CCCC3)c(=S)[nH]c2c1,-0.61,2,3,10,7,-8,0.9
Cc1cc(C)n(-c2ccc(C(=O)Nc3ccc4c(c3)OCCO4)cc2)n1,1.1,-10,-2,-23,50*,0,0.5
Cc1cc(C)c2nc(NC(=O)c3ccc4c(c3)OCO4)sc2c1,-0.19,0,21,8,-1,-8,1
Cc1ccc(Cn2c(NCCCn3ccnc3)nc3c2c(=O)n(C)c(=O)n3C)cc1,-0.5,-3,5,2,98*,-1,0
COC(=O)c1cc2ccsc2n1CC(=O)N(C)c1ccccc1,0.081,-3,5,-2,56*,-4,0.4
CC(=O)Nc1ccc(S(=O)(=O)NCC2CCC(C(=O)N3CCCCCC3)CC2)cc1 (centres undefined),-0.34,2,5,-2,-10,0,1.1

# Not a retest: an excerpt of the list.
SMILES,hDAT+cocaine,PostGolgi yeast,PostGolgi ctrl,S1P2 blocker,CYP2C19 inh,S1P2 ag,CYP2C19 activ
COc1ccc(C(=O)NCCCN2CCOCC2)cc1OC,0.13,-1,11,-12,4,-8,1
O=C(C1CC1)N1CCC(c2nc(-c3ccc(S(=O)(=O)N4CCCC4)cc3)no2)CC1,2.2,11,3,-2,20,-4,0.8
COCCCNC(=O)c1ccc2c(=O)n(C3CCCC3)c(=S)[nH]c2c1,-0.61,2,3,10,7,-8,0.9
Cc1cc(C)n(-c2ccc(C(=O)Nc3ccc4c(c3)OCCO4)cc2)n1,1.1,-10,-2,-23,50*,0,0.5

# New compounds follow
SMILES,hDAT+cocaine,PostGolgi yeast,PostGolgi ctrl,S1P2 blocker,CYP2C19 inh,S1P2 ag,CYP2C19 activ
CCOC(=O)c1cc(Br)c(=O)n2ccccc12,/,-3,12,-19,14,-7,0.9
COc1ccc(/C=N/NC(=O)c2cccc([N+](=O)[O-])c2)cc1OS(=O)(=O)c1ccccc1,0.035,4,12,4,24,-2,0.8
CCOc1cc(S(=O)(=O)NCCN2CCOCC2)c(C)cc1C,-0.66,-1,-9,-4,75*,0,0.2
N#Cc1cnc(SCC(=O)Nc2ccccc2C(F)(F)F)nc1N,0.034,/,/,-13,/,-5,/
CCn1c(CNC(=O)COc2ccc(C(C)C)cc2)nnc1SCC(=O)Nc1ccccc1,1.2,26,1,2,28,-6,0.7
O=C(c1cccs1)N1CCN(c2ncccn2)CC1,0.6,4,-7,4,33,-7,0.7
Cc1ccc(NC(=O)c2ccc(N/N=C/c3cccc(O)c3)c([N+](=O)[O-])c2)cc1,1.2,4,-3,11,-13,-10,1.1
CC(=O)NC(=O)NC1OC(=O)C(Cl)=C1Cl (centres undefined),-0.053,0,-2,12,-24,-6,1.2
O=C(COc1ccc(-c2ccccc2)cc1)N1CCN(S(=O)(=O)Cc2ccccc2)CC1,-0.71,0,8,1,29,-4,0.7
COc1cccc(/C=N/NC(=O)c2cccc([N+](=O)[O-])c2)c1OS(=O)(=O)c1ccccc1,1.7,-3,10,-2,29,-5,0.7
CCC(CC)NC(=O)Cc1ccc(S(=O)(=O)N2CCOCC2)s1,-0.31,-1,-4,-12,17,0,0.8
COc1ccc(Nc2ncccc2C(=O)Nc2ccccc2)cc1,0.024,-22,13,19,17,-6,0.8
COc1ccccc1CNC(=O)C1CCCN(S(=O)(=O)c2cnc[nH]2)C1 (centres undefined),-0.66,-5,-4,13,97*,1,0
CC1(C)NC(=O)N(CNc2cc(Cl)ccc2Cl)C1=O,0.35,6,10,-21,88*,-5,0.1
COc1ccccc1OCc1nnc(SCC(=O)Nc2ccc(C)cc2)n1C,0.68,10,-2,-10,48,-6,0.5

# Exported with bars between the fields: entries from further up
Molecule | hDAT+cocaine | PostGolgi yeast | PostGolgi ctrl | S1P2 blocker | CYP2C19 inh | S1P2 ag | CYP2C19 activ
CC(=O)NC(=O)NC1OC(=O)C(Cl)=C1Cl (centres undefined) | -0.053 | 0 | -2 | 12 | -24 | -6 | 1.2
O=C(COc1ccc(-c2ccccc2)cc1)N1CCN(S(=O)(=O)Cc2ccccc2)CC1 | -0.71 | 0 | 8 | 1 | 29 | -4 | 0.7
COc1cccc(/C=N/NC(=O)c2cccc([N+](=O)[O-])c2)c1OS(=O)(=O)c1ccccc1 | 1.7 | -3 | 10 | -2 | 29 | -5 | 0.7
CCC(CC)NC(=O)Cc1ccc(S(=O)(=O)N2CCOCC2)s1 | -0.31 | -1 | -4 | -12 | 17 | 0 | 0.8
COc1ccc(Nc2ncccc2C(=O)Nc2ccccc2)cc1 | 0.024 | -22 | 13 | 19 | 17 | -6 | 0.8

# Following part.
SMILES,hDAT+cocaine,PostGolgi yeast,PostGolgi ctrl,S1P2 blocker,CYP2C19 inh,S1P2 ag,CYP2C19 activ
Cc1ccc(NC(=O)CN2C(=O)N/C(=C/c3ccc(C)o3)C2=O)cc1,-0.012,-5,13,3,0,-5,1
Cc1ccc(NC(=O)c2ccc(F)c(S(=O)(=O)N3CCOCC3)c2)cc1F,-1.1,-5,24,12,8,-1,0.9
CC(C)(C)C(=O)NC(NC(=S)Nc1sc2c(c1C#N)CCCC2)C(Cl)(Cl)Cl (centres undefined),-0.12,-3,15,6,-12,-3,1.1
C/C(=N/NC(=O)c1ccoc1C)C12CC3CC(CC(C3)C1)C2,-0.00061,8,16,-17,57*,-4,0.4
Cc1ncc([N+](=O)[O-])n1CC(C)O (centres undefined),-0.97,17,2,19,5,-6,0.9
CCCC(=O)Nc1ccc(C(=O)NCCCn2ccnc2)cc1,-0.71,9,8,-17,52*,4,0.5
Cc1cccc(-n2c(SCC(N)=O)nnc2-c2ccccn2)c1C,-0.2,16,4,-4,0,-3,1
COc1cccc(NC(=O)Nc2c(C)n(C)n(-c3ccccc3)c2=O)c1,/,0,-3,-11,1,-6,1
CCCCC(=O)Nc1ccc(C(=O)Nc2nc(CC(=O)OCC)cs2)cc1,0.84,-4,0,-21,22,1,0.8
CCC(=O)Nc1cccc(NC(=O)COc2ccc(OC)cc2)c1,1.7,0,5,-8,36,-5,0.6
Cc1cccc(Nc2ncnc3ccccc23)c1,-0.88,2,-3,-6,59*,-3,0.4
O=C(Nc1cccc(F)c1)c1cccc(S(=O)(=O)N2CCOCC2)c1,0.15,-4,4,-4,/,-4,/
C=CCn1c(CCNC(=O)c2cccs2)nnc1SCC(=O)Nc1cccc(Cl)c1C,-0.052,8,25,-30,16,-4,0.8
CC1=C(C(=O)Nc2cccnc2)C(c2ccncc2)n2nnnc2N1 (centres undefined),-0.035,3,1,-2,/,-2,/
Cc1cc(S(=O)(=O)NC2CCCC2)ccc1F,0.33,-9,7,-8,26,-1,0.7
O=C(NCc1ccco1)C12CC3CC(CC(C3)C1)C2,0.047,/,/,9,/,-5,/
CCCc1cc(=O)oc2cc(OCC(=O)OC)cc(OCC(=O)OC)c12,0.87,0,4,-3,49,-5,0.5
FC(F)(F)c1ccccc1C1C2=C(Nc3ncnn31)c1ccccc1CCC2 (centres undefined),-0.65,0,12,-6,25,-6,0.7
COC(=O)c1ccc(NC(=O)C(=O)N2CCCC2)cc1,2,5,-6,-20,15,-2,0.8
NC(=O)C(c1ccc(Cl)cc1)c1ccc(Sc2ccccc2)nn1 (centres undefined),0.022,-9,4,-1,41,-4,0.6
CC(C)(C)C1CCc2c(C(=O)N/N=C/c3cccs3)csc2C1 (centres undefined),0.54,12,-6,-4,35,0,0.7
COc1ccc(-c2n[nH]c(=S)o2)c(OC)c1,-0.48,-1,2,-5,-11,-3,1.1
COc1ccc(S(=O)(=O)N(CCN2CCOCC2)Cc2cc(OC)ccc2OC)cc1,0.014,-3,-1,-15,81*,-2,0.2
CCc1nc(-c2cc3ccc(C)cc3[nH]c2=O)no1,-0.076,6,-1,8,17,-6,0.8
O=C(CCc1ccc(S(=O)(=O)NC2CCCCC2)cc1)NCc1ccccc1,0.45,-9,1,-12,63*,-7,0.4
O=C(CNS(=O)(=O)c1ccccc1)OCC(=O)c1ccc(OC(=O)c2ccccc2)cc1,0.13,-4,-4,-10,-9,-4,1.1
Cc1cc(C)n(C(=O)c2cccc(S(=O)(=O)N3CCOCC3)c2)n1,-8.3*,5,1,3,59*,-10,0.4
CC(C)c1nnc(NC(=O)CCC(=O)NCc2cccs2)s1,0.88,-2,2,-11,-6,-2,1.1
CN(C)CCNC(=O)CCCNC(=O)Cn1cnc2sc3c(c2c1=O)CCCC3,-0.21,16,-3,9,-15,-4,1.1
O=C(c1ccco1)N1CCN(C(=O)c2cc(-c3ccncc3)nc3ccc(Br)cc23)CC1,-2.7*,/,/,6,/,-5,/
c1ccc(C2C3=C(Nc4ncnn42)c2ccccc2CCC3)cc1 (centres undefined),0.72,6,1,-4,52*,-8,0.5
O=C(c1ccc2c(c1)OCO2)N1CCN=C1SCc1cccnc1,0.45,-1,5,29,76*,-4,0.2
CCOc1cc([C@H]2[C@@H]3CCCC[C@]3(O)CCN2CC(=O)NCc2ccco2)ccc1O,-0.014,-2,-3,13,56*,-3,0.4
O=C1CNCc2[nH]c3ccccc3c2N1c1ccccc1,-0.0015,-5,32*,16,6,-3,0.9
COc1cccc(N2CCN(C(=O)C3CCCN(S(=O)(=O)c4cnc[nH]4)C3)CC2)c1 (centres undefined),-0.73,-13,0,13,25,-4,0.7
COc1ccc(OC)c2sc(NC(=O)c3ccc(S(=O)(=O)N4CCOCC4)cc3)nc12,-1.2,-4,16,-1,6,-3,0.9
O=C(Nc1ccccc1)N1C(=O)C2(OCCO2)c2ccccc21,-0.0025,9,13,1,-8,-3,1.1

# Screens from PubChem.
